# Env fusion inh: inhibitors of HIV Env-mediated cell fusion. inhibition, % at 12.3 µM. actives 1.1% (n = 360,000). HeLa-JRFL Env/CEM21 cell fusion, luciferase;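 active means mean replicate inhibition score of at least 50 and every replicate individually at or above 50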;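 further: 0% = plate neutral controls and 100% = maraviroc near 300 nM; one replicate is shown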
# Starred values were filed as active, the others as inactive; [ ] = dose if it differs, or a comment. This is a subset, so the mix of outcomes need not match the whole.
SMILES,Env fusion inh
C[C@H](NC(=O)C[C@@H]1C[C@H]2c3cc(NC(=O)C4CCOCC4)ccc3O[C@H]2[C@@H](CO)O1)c1ccccc1,11.8[16.7 µM]
COc1cc(OC)cc(C(=O)NCC2CCN(C(=O)C(=O)c3cc4ccccc4o3)CC2)c1,-17.6
C[C@@H]1CN([C@H](C)CO)C(=O)c2cc(Br)cnc2O[C@H]1CN(C)C(=O)C1CCC1,-4.6[16.7 µM]
COc1ccccc1NC(=O)N(C)C[C@@H]1OCc2cn(nn2)CCCC(=O)N([C@@H](C)CO)C[C@@H]1C,-5.9[16.7 µM]
C[C@@H]1CN([C@H](C)CO)C(=O)Cc2cc(NC(=O)Cc3ccccc3)ccc2O[C@@H]1CN(C)Cc1ccc(C(F)(F)F)cc1,16.4[16.7 µM]
COc1ccc(C[C@@H]2CCn3cc(nn3)COC[C@H](Cc3ccccc3)NC2=O)cc1,7.6[16.7 µM]
c1ccc(Cc2cnc(N3CCN(Cc4csc5ccccc45)CC3)nc2)cc1,77.0*
CO[C@H]1CN(C)C(=O)c2cc(NC(=O)Cc3ccccc3)ccc2OC[C@H](C)NC[C@@H]1C,-1.2[16.7 µM]
Cc1nn(C)cc1NC(=O)C[C@H]1CC[C@H]2[C@@H](COc3ccc(NC(=O)C4CCOCC4)cc3C(=O)N2C)O1,13.1[16.7 µM]
O=C(C[C@H]1CC[C@H](NC(=O)c2ccncc2)[C@@H](CO)O1)Nc1ccc(-c2ccccc2)cc1,-6.7[16.7 µM]
O=C(C[C@H]1CC[C@H]2[C@@H](COC[C@@H](O)CN2CCC(F)(F)F)O1)NCc1ccc(Oc2ccccc2)cc1,17.5[16.7 µM]
O=C1N[C@H](Cc2ccccc2)COCn2nncc2CC[C@@H]1Cc1ccccc1,-20.4[16.7 µM]
C[C@@H]1CN([C@H](C)CO)C(=O)c2ccccc2-c2ccccc2CO[C@@H]1CN(C)C(=O)Nc1cccc(C(F)(F)F)c1,-0.5[16.7 µM]
CO[C@H]1CN(C)C(=O)c2ccc(NC(=O)c3ccc(-c4ccccc4)cc3)cc2OC[C@H](C)NC[C@H]1C,20.3[16.7 µM]
CO[C@@H]1CC[C@@H]2CCOc3c(C#N)cccc3C(=O)N(C)C[C@@H](OC)[C@@H](C)C(=O)N(C)C[C@H]1O2,-4.2[16.7 µM]
CO[C@H]1CC[C@@H]2CCOc3ccc(C#N)cc3C(=O)N(C)C[C@@H](c3ccccc3)CC(=O)N(C)C[C@@H]1O2,-25.6[16.7 µM]
N#C[C@H](N)[C@H]1O[C@@H](n2ccc(=O)[nH]c2=O)[C@H](O)[C@@H]1O,6.6
O=C(C[C@@H]1CC[C@H]2[C@@H](COC[C@@H](O)CN2S(=O)(=O)c2cccc(F)c2)O1)NCc1ccncn1,1.1[16.7 µM]
CC(C)NC(=O)Nc1ccc2c(c1)C(=O)N([C@H](C)CO)C[C@@H](C)[C@@H](CN(C)C(=O)CCC(F)(F)F)OCCCC[C@H](C)O2,-7.2[16.7 µM]
Cc1ccc([C@H]2C[C@]34CNS(=O)(=O)[C@H]3C[C@H]2O4)cc1,-15.9
CC=Cc1ccc2n(c1=O)C[C@H]1[C@H](CO)[C@@H](C(=O)NCC)N(Cc3ccccc3Cl)[C@@H]21 (mixture of isomers),10.0[16.7 µM]
CO[C@H]1CN(C)C(=O)c2cc(NC(=O)c3ccc(F)cc3)ccc2OC[C@H](C)NC[C@H]1C,2.5[16.7 µM]
COc1ccccc1CNC(=O)C[C@H]1C[C@@H]2c3cc(N(C)C)ccc3O[C@@H]2[C@@H](CO)O1,-6.6[16.7 µM]
COC(=O)c1cc2c(c3c4ccccc4n(S(=O)(=O)c4ccc(OC)cc4)c13)C(=O)N(Cc1ccc(C(F)(F)F)cc1)C2,4.8
CO[C@@H]1CN(C)C(=O)c2ccc(NS(C)(=O)=O)cc2OC[C@@H](C)N(C(=O)c2ccc3c(c2)OCO3)C[C@@H]1C,-12.8[16.7 µM]

# Seven entries drawn at random from those above, as already listed:
SMILES,Env fusion inh
O=C(C[C@@H]1CC[C@H]2[C@@H](COC[C@@H](O)CN2S(=O)(=O)c2cccc(F)c2)O1)NCc1ccncn1,1.1[16.7 µM]
CC(C)NC(=O)Nc1ccc2c(c1)C(=O)N([C@H](C)CO)C[C@@H](C)[C@@H](CN(C)C(=O)CCC(F)(F)F)OCCCC[C@H](C)O2,-7.2[16.7 µM]
C[C@@H]1CN([C@H](C)CO)C(=O)c2cc(Br)cnc2O[C@H]1CN(C)C(=O)C1CCC1,-4.6[16.7 µM]
C[C@@H]1CN([C@H](C)CO)C(=O)Cc2cc(NC(=O)Cc3ccccc3)ccc2O[C@@H]1CN(C)Cc1ccc(C(F)(F)F)cc1,16.4[16.7 µM]
CO[C@@H]1CC[C@@H]2CCOc3c(C#N)cccc3C(=O)N(C)C[C@@H](OC)[C@@H](C)C(=O)N(C)C[C@H]1O2,-4.2[16.7 µM]
N#C[C@H](N)[C@H]1O[C@@H](n2ccc(=O)[nH]c2=O)[C@H](O)[C@@H]1O,6.6
O=C1N[C@H](Cc2ccccc2)COCn2nncc2CC[C@@H]1Cc1ccccc1,-20.4[16.7 µM]

# (cont.)
SMILES,Env fusion inh
COc1ccc2nc3n(c(=O)c2c1)-c1cc(Cl)ccc1C(=O)NC3Cc1ccccc1 (configuration not stated),-1.9
C[C@@H]1CN([C@@H](C)CO)C(=O)c2cc(NC(=O)Cc3cn(C)c4ccccc34)ccc2O[C@@H]1CN(C)Cc1ccc(-c2ccccc2)cc1,4.1[16.7 µM]
C[C@H]1CCCCO[C@@H](CN(C)C(=O)c2ccncc2)[C@@H](C)CN([C@@H](C)CO)C(=O)c2cc(NC(=O)c3ccccc3)ccc2O1,0.2[16.7 µM]
CO[C@H](CN(C)S(=O)(=O)c1ccc(F)cc1)[C@@H](C)CN(C(=O)Nc1ccccc1F)[C@H](C)CO,12.7[16.7 µM]
COC(=O)[C@]12C[C@H](CC(=O)NCc3cccc(C(F)(F)F)c3)C(=O)N(Cc3ccccc3)C1=C[C@H](C(C)(C)C)O[C@@H]2C,46.8
CO[C@H]1CN(C)C(=O)c2cc(NC(=O)Nc3ccc(Cl)c(Cl)c3)ccc2OC[C@@H](C)NC[C@@H]1C,12.6[16.7 µM]
C[C@@H]1CN([C@H](C)CO)C(=O)Cc2cc(NC(=O)Nc3ccc(C(F)(F)F)cc3)ccc2O[C@@H]1CN(C)S(=O)(=O)c1ccc(Cl)cc1,-0.2[16.7 µM]
COc1ccc(NC(=O)N(C)C[C@@H]2Oc3ccc(NS(=O)(=O)c4ccc(C)cc4)cc3C(=O)N([C@H](C)CO)C[C@@H]2C)cc1,17.4[16.7 µM]
CCCN1C[C@H](C)[C@H](OC)CN(C)C(=O)c2cc(NC(=O)Nc3ccccc3F)ccc2OC[C@H]1C,10.8[16.7 µM]
C[C@H]1CN([C@@H](C)CO)C(=O)c2cc(-c3cccnc3)cnc2O[C@H]1CN(C)Cc1ccccc1,14.3[16.7 µM]
C[C@]12Cc3ccccc3C1CC1=N[C@@H](c3ccc(C(F)(F)F)cc3)O[C@@]13C[C@@H]2C(=O)N3Cc1ccncc1 (some centres not stated),9.9
O=C(C[C@H]1CC[C@@H]2NC[C@H](O)COC[C@H]2O1)Nc1nccs1,-17.5[16.7 µM]
COC(=O)C1=C(C)N(Cc2ccccc2C(F)(F)F)C(=NCc2ccc(C(F)(F)F)cc2)NC1c1cccc(F)c1 (configuration not stated),-38.1
O=C(C[C@@H]1C[C@H]2c3cc(NS(=O)(=O)c4ccc(F)cc4)ccc3O[C@H]2[C@H](CO)O1)NC1CCCCC1,21.9[16.7 µM]
Cc1cc(O)cc(=O)n1-c1cccc([N+](=O)[O-])c1,5.3
O=C(C[C@@H]1CC[C@H]2[C@@H](COC[C@H](O)CN2Cc2cccc(C(F)(F)F)c2)O1)NCc1ccc(Cl)cc1,67.5*[16.7 µM]
CCCC[C@@H](O)C1=C(COc2ccccc2)C[C@H]2C(=O)N(Cc3ccccc3)C(=O)[C@H]2[C@H]1CO,26.3[16.7 µM]
CC(C)C[C@@H]1COc2cc(NC3CC3)ccc2S(=O)(=O)N1,24.9
C[C@H](CO)N1C[C@H](C)[C@H](CN(C)C(=O)[C@H](C)c2ccccc2)OCc2ccccc2-c2ccccc2C1=O,8.1[16.7 µM]
C[C@@H]1CN([C@H](C)CO)C(=O)Cc2cc(NC(=O)Nc3ccc(F)cc3)ccc2O[C@@H]1CN(C)S(=O)(=O)c1cn(C)cn1,-17.8[16.7 µM]
COCCNC(=O)C[C@H]1C[C@@H]2c3cc(NC(=O)CN(C)C)ccc3O[C@@H]2[C@@H](CO)O1,17.9[16.7 µM]
O=C(C[C@H]1CC[C@H]2[C@@H](COC[C@@H](O)CN2S(=O)(=O)c2ccccc2)O1)NCc1ccc(-c2ccccc2)cc1,-11.8[16.7 µM]
O=C(N[C@H](C(=O)N1CCC[C@H]1C(=O)NC1CCCC1)C1CCCCC1)c1ccc(Cl)cc1Cl,-28.1
CCCNC(=O)C[C@H]1CC[C@@H]2[C@@H](COc3ccc(NC(=O)c4ccc5c(c4)OCO5)cc3C(=O)N2C)O1,12.0[16.7 µM]
CN1CCCCC(NC(=O)c2ccc(F)c(F)c2)C1=O (configuration not stated),-1.7

# A different layout for part of the listing above.
> CCCN1C[C@H](C)[C@H](OC)CN(C)C(=O)c2cc(NC(=O)Nc3ccccc3F)ccc2OC[C@H]1C
- Env fusion inh = 10.8[16.7 µM]
> C[C@H]1CN([C@@H](C)CO)C(=O)c2cc(-c3cccnc3)cnc2O[C@H]1CN(C)Cc1ccccc1
- Env fusion inh = 14.3[16.7 µM]

# (list continues)
SMILES,Env fusion inh
C[C@H]1COc2cc(N3CCCC3)ccc2S(=O)(=O)N1,4.1
C[C@@H]1CN([C@H](C)CO)C(=O)c2c(c3ccccc3n2C)-c2ccccc2CO[C@H]1CN(C)C(=O)[C@@H]1CCCN1C,13.6[16.7 µM]
O=C(C[C@@H]1C[C@H]2c3cc(NC(=O)c4ccc5c(c4)OCO5)ccc3O[C@H]2[C@H](CO)O1)NCc1cc(F)ccc1F,-1.8[16.7 µM]
CC(=O)N1[C@@H]2c3ccc(/C=C/c4ccccc4)c(=O)n3C[C@@H]2[C@@H](CO)[C@@H]1C(=O)Nc1nccs1,11.6[16.7 µM]
Cc1ccc(S(=O)(=O)Nc2ccc3c(c2)C(=O)N([C@@H](C)CO)C[C@@H](C)[C@H](CN(C)Cc2ccc(C(F)(F)F)cc2)O3)cc1,7.1[16.7 µM]
COc1ccc(-c2ccc3n(c2=O)C[C@@H]2[C@@H](CO)[C@H](C(=O)N(C)C)N(CC4CCCC4)[C@H]32)cc1,-12.8[16.7 µM]
C[C@H](O)[C@@H]1CN2CCc3ccc(-c4ccc5c(c4)OCO5)cc3[C@@H]2C[C@@H]1N(C)Cc1cc(Cl)cc(Cl)c1,20.6
C[C@H](CO)N1C[C@H](C)[C@H](CN(C)Cc2cccc3c2OCCCO3)OCc2ccccc2-c2ccccc2C1=O,6.8[16.7 µM]
COc1cccc(S(=O)(=O)Nc2ccc3c(c2)[C@@H]2C[C@H](CC(=O)NCCc4ccccc4)O[C@@H](CO)[C@@H]2O3)c1,-0.2[16.7 µM]
O=C(C[C@@H]1C[C@H]2c3cc(NC(=O)NC4CCCC4)ccc3O[C@H]2[C@H](CO)O1)NCc1ccncc1,-7.2[16.7 µM]
CCCNC(=O)[C@@H]1[C@@H](CO)[C@@H]2Cn3c(ccc(-c4ccncc4)c3=O)[C@H]1N2Cc1ccccc1F,2.9[16.7 µM]
CO[C@H]1CN(C)C(=O)c2ccc(NC(=O)Nc3cc(F)ccc3F)cc2OC[C@@H](C)N(C(=O)c2cnccn2)C[C@H]1C,-2.3[16.7 µM]
CC(C)[C@@H]1CC[C@@H](C)C[C@H]1OC[B-](F)(F)F,-131.0
CCNC(=O)O[C@@H]1C=C[C@@H](C#Cc2ccc(C(C)(C)C)cc2)O[C@@H]1COC(C)=O,12.7
CC(C)NC(=O)N(C)C[C@@H]1OCCCC[C@@H](C)Oc2ccc(NC(=O)CCCN(C)C)cc2C(=O)N([C@@H](C)CO)C[C@@H]1C,8.6[16.7 µM]
CN1CCN(C(=O)C[C@H]2CC[C@@H]3[C@H](COC[C@H](O)CN3Cc3cccc(F)c3)O2)CC1,-32.3[16.7 µM]
CC(C)(C)[S@@](=O)N1Cc2cc(C(=O)NCC(F)(F)F)nc(-c3cccc(-c4cccc(F)c4)c3)c2[C@H]1CCO,19.7[16.7 µM]
CCCC(=O)Nc1ccc2c(c1)C(=O)N(C)C[C@@H](OC)[C@H](C)CN(Cc1nccs1)[C@@H](C)CO2,-27.6[16.7 µM]
C[C@@H]1CCCCO[C@@H](CN(C)Cc2ccc(C(F)(F)F)cc2)[C@@H](C)CN([C@H](C)CO)C(=O)c2cc(NC(=O)Cc3ccccc3)ccc2O1,0.6[16.7 µM]
CN(C)c1ccc2c(c1)[C@@H]1C[C@@H](CC(=O)N3CCc4ccccc4C3)O[C@@H](CO)[C@@H]1O2,14.1[16.7 µM]
COC(=O)[C@]12C[C@H](CC(=O)N3CCCCC3)C(=O)N(Cc3ccccc3)C1=C[C@H](C(C)C)O[C@@H]2C1CC1,-19.8
COC(=O)[C@]12C[C@H](CC(=O)NCc3ccc(OC)c(OC)c3)C(=O)N(Cc3ccccc3)C1=C[C@H](C1CCCC1)O[C@@H]2C,43.5
CN(N=Cc1ccc(N(C)C)cc1)C(=O)c1ccccc1N,-27.0
C[C@@H]1CN([C@H](C)CO)C(=O)c2cc(C3=CCCC3)cnc2O[C@@H]1CN(C)C(=O)c1ccc2c(c1)OCO2,-0.2[16.7 µM]
CO[C@H]1CN(C)C(=O)c2cc(NS(=O)(=O)CC(F)(F)F)ccc2OC[C@@H](C)N(C(=O)NC(C)C)C[C@H]1C,13.5[16.7 µM]
O=C(C[C@@H]1CC[C@H]2[C@@H](COC[C@@H](O)CN2S(=O)(=O)c2ccccc2)O1)NCc1ccc(-c2ccccc2)cc1,-3.5[16.7 µM]
C[C@H](O)C#Cc1cnc2c(c1)C(=O)N([C@@H](C)CO)C[C@@H](C)[C@@H](CN(C)CC1CCOCC1)O2,-2.5[16.7 µM]
C[C@@H]1CN([C@@H](C)CO)C(=O)c2cc(NC(=O)Nc3cccc4ccccc34)ccc2O[C@H]1CN(C)Cc1ccncc1,1.4[16.7 µM]
CN1C(=O)c2cc(NC(=O)Cc3cccs3)ccc2OC[C@H]2O[C@H](CC(=O)NCc3ccc(-c4ccccc4)cc3)CC[C@H]21,-23.6[16.7 µM]
CO[C@H]1CN(C)C(=O)c2cc(NC(=O)c3ccc(F)cc3)ccc2OC[C@@H](C)NC[C@H]1C,-2.8[16.7 µM]
